Assay outcomes as filed in PubChem BioAssay.
NPYLR7 ag: mosquito NPYLR7 agonism; HEK293T NPYLR7/Galpha15, GCaMP6s calcium fluorescence; activation, % at 10 µM; 0.15% of 270,000 active; AID 1259423; in the data active means activation above about 40%;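 further: 0% = vehicle and 100% = reference agonist at the receptor; some compounds past the cut are filed as inactive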
NPYLR7 ag max-min: also measured in NPYLR7 ag; calls as there; activation, %; measured here: Max-Min RFU normalised activation; some inactives read as strong as hits;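 span of the calcium signal over five minutes; 0% = vehicle and 100% = native peptide agonist; compound fluorescence can raise it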
The depositor's hits bear a star; & = joins results of further samples. An excerpt; count on the stated rates, not on these rows.

no.	molecule	NPYLR7 ag	NPYLR7 ag max-min
1	CC(C)(C)C(=O)N1CCN(S(=O)(=O)c2ccccc2F)CC1	21.4	19.6
2	Cc1ccc(NC(=O)C2(C)CCN2Cc2csc3ccccc23)cc1O (stereo not drawn)	-2.7	-5.4
3	CC(CCc1ccco1)NC(=O)c1cnn2ccn(C)c12 (stereo not drawn)	8.0	6.4
4	CCc1nnc(NC(=O)C2CSC3(C)CCC(=O)N23)s1 (stereo not drawn)	0.7	0.4
5	c1ccc2c(CNc3nn[nH]n3)cccc2c1	-0.8	-1.5
6	COc1ccc(-c2nc(CN3CCN(c4ncnc5ccccc45)CC3)c(C)o2)c(F)c1	6.3	0.4
7	Cc1cc(CN(C)C(=O)CC2c3ccccc3CCc3ccccc32)n[nH]1	2.5	0.9
8	COc1ccc(-c2ccc(N)nc2)c(OC)c1	3.5	2.5

Later entries:
no.	molecule	NPYLR7 ag	NPYLR7 ag max-min
9	Cc1ccccc1C1CCN(CCNC2CCN(C(=O)C(C)C)CC2)C1 (stereo not drawn)	-10.7	-13.4
10	COc1cccc(-c2cc(C(=O)N3CCN(C(=O)CSc4ccccc4)CC3)c(C)n2-c2ccccc2)c1	16.0	22.6
11	c1cncc(-c2nnc(SC3CCCc4ccccc43)o2)c1 (stereo not drawn)	6.7	6.5
12	Cc1ccc2nc(C)cc(C(=O)N3CCCC(N4CCN(c5ccccc5C)CC4)C3)c2c1 (stereo not drawn)	3.5	-6.4
13	FC(F)(F)c1cccc(Nc2nc(-c3ccccc3)c3ccccc3n2)c1	-22.0	-27.2
14	Cc1ccc(C(=O)N(CC(=O)N(Cc2ccccc2)Cc2sccc2C)C(C)C)cc1[N+](=O)[O-]	13.0	17.0
15	Cc1[nH]ncc1S(=O)(=O)N(CCC#N)c1ccc(F)cc1	-1.6	-2.4
16	COc1cccc(CNC(=O)CCC2CCCN(Cc3[nH]c4c(C)cccc4c3C)C2)c1 (stereo not drawn)	7.4	5.1

(cont.)
no.	molecule	NPYLR7 ag	NPYLR7 ag max-min
17	COCC(=O)Nc1ccc(N2CCN(C(=O)NCCc3ccccc3F)CC2)nc1	19.5	15.5
18	O=C(CSC1=NS(=O)(=O)c2ccccc2N1)N1CCCC1	11.3	5.7
19	O=C1CCSc2ccc(C(=O)Nc3ccc4c(c3)OC3(CCCC3)O4)cc2N1	5.7	3.2
20	Cc1nc2ccccn2c(=O)c1NC(=O)C(F)(F)F	-7.4	-6.7
21	Cc1ccc(NC(=O)c2cc3ccc(O)cc3oc2=N)cc1	-3.7	-9.7
22	Cc1ncc(S(=O)(=O)Nc2cnc3c(c2)c(C)nn3C)s1	3.7	2.5
23	CCCOc1ccc(C2NC(=O)NC3=C2C(=O)N(Cc2ccc(OC)cc2)C3)cc1 (stereo not drawn)	-1.0	17.3
24	O=c1oc(-c2ccc([N+](=O)[O-])cc2Cl)nc2cc(Cl)ccc12	-14.8	-22.0

(cont.)
no.	molecule	NPYLR7 ag	NPYLR7 ag max-min
25	Cc1noc(C)c1C(C)C(=O)Nc1cccnc1N1CCC(CO)CC1 (stereo not drawn)	4.2	3.7
26	CNC(=O)[C@@H]1C[C@@H](NCCC2=C(C)CCCC2(C)C)CN1C(C)C	8.5	1.3
27	O=C(O)COc1c(Cl)cc(/C=C2\C(=O)NC(=S)N(c3ccccc3)C2=O)cc1Cl	-11.1	-15.9
28	CCOC(=O)C1(Cc2cccc(OC)c2)CCN(Cc2cnc(N(C)C)s2)CC1	3.0&-7.1	0.7&-12.2
29	O=C(c1ccc(N2CCC(NCC3C4CC5CC(C4)CC3C5)CC2)cc1)N1CCOCC1 (stereo not drawn)	3.2	0.0
30	COCCN(Cc1nc2ccccc2o1)C(=O)c1ccc(F)cc1	1.1	-0.6
31	CCc1nc2ccc(C(=O)NCc3ccccc3OC)cn2c1N(CCN(C)C)CC1CC1	-5.6	-11.2
32	Fc1ccccc1C1CC(c2ccncc2)=Nc2nc(C(F)(F)F)nn21 (stereo not drawn)	1.2	-0.1

Of the compounds above, 4 contain an NH in an aromatic ring:
no.	molecule	NPYLR7 ag	NPYLR7 ag max-min
5	c1ccc2c(CNc3nn[nH]n3)cccc2c1	-0.8	-1.5
7	Cc1cc(CN(C)C(=O)CC2c3ccccc3CCc3ccccc32)n[nH]1	2.5	0.9
15	Cc1[nH]ncc1S(=O)(=O)N(CCC#N)c1ccc(F)cc1	-1.6	-2.4
16	COc1cccc(CNC(=O)CCC2CCCN(Cc3[nH]c4c(C)cccc4c3C)C2)c1 (stereo not drawn)	7.4	5.1

Next entries
no.	molecule	NPYLR7 ag	NPYLR7 ag max-min
33	CCOP(=O)(Cc1ccc(NC(=O)C2CC2(c2ccccc2)c2ccccc2)cc1)OCC (stereo not drawn)	-6.8	-16.8
34	COc1ccc(C2CC(=O)NCCN2Cc2cn(C)c3ccccc23)cc1 (stereo not drawn)	-3.1	-3.5
35	O=S(=O)(c1ccc(NC2CCN(C3CC3)CC2)cc1)C(F)(F)F	6.8	3.0
36	CCN1CCCC1CN(CC1CCN(CCOC)CC1)C(=O)c1oc(C)cc1C (stereo not drawn)	-8.1	-6.4
37	CCCCNC1CCS(=O)(=O)C1 (stereo not drawn)	5.8	4.7
38	CCN(CC)c1ncccc1CNC(=O)c1cnccn1	8.5	7.4
39	O=C(NC1CC(=O)N(CCc2ccccc2)C1)c1ccc(-c2ncn[nH]2)cc1 (stereo not drawn)	2.3	1.3
40	Cc1cc(C(=O)Nc2cc(CN3CCSCC3)ccc2C)on1	-2.6	10.1

Carrying on.
no.	molecule	NPYLR7 ag	NPYLR7 ag max-min
41	CN(C)CCN(C(=O)c1ccc(F)cc1)c1nc2c(F)cc(F)cc2s1	-3.3	-5.7
42	Cc1nc2ccccn2c(=O)c1NC(=O)NC1CCCCC1	-3.9	-4.6
43	Nc1ncnc(Sc2ccc(Cl)cc2)c1[N+](=O)[O-]	-1.5	-2.4
44	N#Cc1cccc(C(=O)OC2(C3CC3)CC2)c1	6.2	1.4
45	Cc1ccc(-n2nc(C(=O)N3CCOCC3)c(=O)n(Cc3ccc(C(F)(F)F)cc3)c2=O)cc1Cl	12.8	11.0
46	CCn1cnnc1CCNc1nc(C)nc2c1cnn2C	23.0	17.5
47	Cc1ccccc1CN1CCC(CN(Cc2cccnc2)C(=O)C2=CCCC2)CC1	16.4	8.7
48	CN(C)c1ccc(Cl)cc1N	-2.7	-4.1

Arranged by formula weight (ascending): some entries from above.
no.	molecule	NPYLR7 ag	NPYLR7 ag max-min
44	N#Cc1cccc(C(=O)OC2(C3CC3)CC2)c1	6.2	1.4
43	Nc1ncnc(Sc2ccc(Cl)cc2)c1[N+](=O)[O-]	-1.5	-2.4
46	CCn1cnnc1CCNc1nc(C)nc2c1cnn2C	23.0	17.5
40	Cc1cc(C(=O)Nc2cc(CN3CCSCC3)ccc2C)on1	-2.6	10.1
39	O=C(NC1CC(=O)N(CCc2ccccc2)C1)c1ccc(-c2ncn[nH]2)cc1 (stereo not drawn)	2.3	1.3
41	CN(C)CCN(C(=O)c1ccc(F)cc1)c1nc2c(F)cc(F)cc2s1	-3.3	-5.7
47	Cc1ccccc1CN1CCC(CN(Cc2cccnc2)C(=O)C2=CCCC2)CC1	16.4	8.7

The list continues.
no.	molecule	NPYLR7 ag	NPYLR7 ag max-min
49	O=S(=O)(c1ccc(N2CCN(Cc3ccc(Cl)s3)CC2)nc1)N1CCCC1	8.7	8.9
50	CNC(C)c1ccc(Sc2ccc(C(C)C)cc2)c(F)c1 (stereo not drawn)	2.0	2.6
51	C=CCOc1ccc(C2C3=C(CC(C)(C)CC3=O)OC(=N)C2C#N)cc1 (stereo not drawn)	-7.6	-9.0
52	CCCNC(=O)N(Cc1ccco1)Cc1nccn1Cc1cccc(F)c1	-0.6	6.8
53	CC1Oc2ccc(Nc3ncnc4c3cnn4C)cc2NC1=O (stereo not drawn)	8.2	9.2
54	O=C(O)Cc1csc(-c2ccc(Cl)cc2)n1	-17.9	-27.4
55	O=C1OC(c2ccc(Br)o2)=N/C1=C/C=C/c1ccccc1	-0.3	-5.1
56	CC1(C)CN(CC(=O)NCC(=O)N2CCCC2)c2cccc(Cl)c21	-5.4	-6.3

Next section.
no.	molecule	NPYLR7 ag	NPYLR7 ag max-min
57	CCC1=[N+]([O-])C(C)(C(C)=O)N(O)C1(C)C (stereo not drawn)	-10.5	-13.8
58	Cc1ccc(-n2c(Cc3ccccc3)nnc2SCCCCC(=O)N2CCN(C(=O)c3ccc(C(C)(C)C)cc3)C(C)C2)cc1 (stereo not drawn)	-7.6	2.5
59	O=C(CSc1nc(=O)n(Cc2ccco2)c2c1CCC2)Nc1cccc2ccccc12	-3.5	-4.4
60	O=C(CCNc1ccc(C(F)(F)F)cc1[N+](=O)[O-])N1CCOCC1	-6.1	-5.6
61	CN1CCN(c2c(S(=O)(=O)c3ccccc3)cnc3ccccc23)CC1	2.5	1.3
62	CC(C)(C)NC(=O)COC(=O)c1cccc(O)c1	5.0	1.6
63	Cc1cn2c3c(=O)n(Cc4c(F)cccc4Cl)c(=O)n(C)c3nc2n1CCOCCO	33.3	28.0
64	CC(C)(C)n1ccc(C(=O)N2CCCC(CCc3ccc(F)cc3)C2)c1 (stereo not drawn)	-3.8	-2.8
65	CC(C)(C)c1nc(COc2cccc3c2CCCC3O)no1 (stereo not drawn)	-0.9	-1.5
66	Cc1cc(OC(=O)c2ccc(-c3ccccc3)cc2)c([N+](=O)[O-])c(=O)[nH]1	-4.0	-3.6
